# Source: PubChem (National Center for Advancing Translational Sciences (NCATS))
# TRPV1 potentiator: HTS Assay for Compounds that Act as Potentiators of the Vanilloid Receptor 1 | AID 540277, 2011 | 0.02% of 320,000 active | Transient receptor potential cation channel subfamily V member 1 (Homo sapiens), Q8NER1 | TRPV1-expressing cells, Fluo-8 calcium influx, capsaicin EC20 potentiation; host cell line not named in the record; control for the full effect not named in the record | potentiation, % at 8.33 µM; active means potentiation above 80%; inconclusive means 30% to 80%; inactive means below 30%; also: 0% is about no effect
#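 Cells expressing TRPV1 were dye-loaded with Fluo-8 and read kinetically: 10 s baseline, 3 min after compound (agonist portion), then 2 min after EC20 capsaicin (allosteric enhancer portion). Calcium-bound dye fluorescence at 480/520 nm.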
# D2 potentiator: Beta-Arrestin HTS for Positive Allosteric Modulators of the Human D2 Dopamine Receptor: Potentiators; D(2) dopamine receptor (Homo sapiens), P14416; DiscoveRx D2 beta-arrestin cells, luminescence, 90 min; 100% = 57 uM dopamine signal; potentiation, % (test concentration not listed); 0.23% of 360,000 active; active = potentiation of 50% or more; inconclusive = 30% to 50%; inactive = 30% or less;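 also: compound concentration not given in the record; tested on top of an EC20 dose of dopamine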
#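 D2 cells co-treated with compound plus 50 nM dopamine (EC20) for 90 min at 37 deg C to detect potentiation. Beta-arrestin recruitment was read as enzyme-fragment luminescence after 1 h at ambient temperature. Full response was set by 57 uM dopamine.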
# CtBP-E1A inh: qHTS Assay for Inhibitors of the CtBP/E1A Interaction | AlphaScreen GST-E1A/His-CtBP binding, 1536-well; stronger effect = lower value; control for the full effect not named in the record | activity change, % (test concentration not listed) | 0.49% of 340,000 active | AID 651724, 2012; in the data active means activity change below about -65%; inconclusive means about -30% to -65%; inactive means above about -30%; also: % is scaled to controls: 0 for no effect and ±100 for the full control effect; compound concentration not given in the record
#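 Protein mix (5X: 125 nM each GST-E1A, His-CtBP) was incubated with pinned compound 2 h at 37 deg C in dark, in 50 mM Tris pH 8.0 buffer with 300 mM NaCl. Glutathione donor and nickel acceptor beads followed; AlphaScreen signal read after 1 h.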
# Six1-Eya2 inh: qHTS Assay for Inhibitors of the Six1/Eya2 Interaction | Homeobox protein SIX1 (Homo sapiens) + Protein phosphatase EYA2 (Homo sapiens), … | AlphaScreen GST-Six1/His-Eya2 binding, biochemical; stronger effect = lower value; control for the full effect not named in the record | activity change, % (concentration not given with the values) | 0.56% of 360,000 active | AID 651725, 2012; in the data active = activity change below about -65%; inconclusive = about -30% to -65%; inactive = above about -30%; also: % is scaled to controls: 0 for no effect and ±100 for the full control effect
# Target sequence (O00167 whole entry, looked up): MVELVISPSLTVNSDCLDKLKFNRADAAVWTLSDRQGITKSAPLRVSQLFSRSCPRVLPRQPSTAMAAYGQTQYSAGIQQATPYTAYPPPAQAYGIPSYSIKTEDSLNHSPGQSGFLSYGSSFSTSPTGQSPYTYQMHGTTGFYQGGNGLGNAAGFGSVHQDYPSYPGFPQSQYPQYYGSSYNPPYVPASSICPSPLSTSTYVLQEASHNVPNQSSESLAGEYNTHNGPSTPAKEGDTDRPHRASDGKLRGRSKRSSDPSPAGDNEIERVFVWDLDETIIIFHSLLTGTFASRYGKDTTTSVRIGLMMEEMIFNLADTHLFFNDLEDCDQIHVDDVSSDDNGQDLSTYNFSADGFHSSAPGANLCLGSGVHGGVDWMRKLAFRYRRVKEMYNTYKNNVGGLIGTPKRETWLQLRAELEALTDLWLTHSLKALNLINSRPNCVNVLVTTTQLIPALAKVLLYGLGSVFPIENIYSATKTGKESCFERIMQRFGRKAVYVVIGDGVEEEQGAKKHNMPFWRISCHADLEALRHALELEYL
# Target sequence (Q15475 whole entry, looked up): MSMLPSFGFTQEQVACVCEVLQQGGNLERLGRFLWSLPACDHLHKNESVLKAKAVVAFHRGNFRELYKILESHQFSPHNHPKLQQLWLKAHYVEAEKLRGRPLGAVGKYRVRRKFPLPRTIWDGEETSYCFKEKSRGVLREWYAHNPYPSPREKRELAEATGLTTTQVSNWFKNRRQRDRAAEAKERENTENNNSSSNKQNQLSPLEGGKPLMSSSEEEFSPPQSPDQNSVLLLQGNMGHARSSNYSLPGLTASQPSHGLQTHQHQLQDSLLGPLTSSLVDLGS
#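 Compounds are tested against tagged Six1 and Eya2 proteins bridged by glutathione donor and nickel acceptor beads; after a one-hour incubation at 37 °C without light, AlphaScreen emission is recorded.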
# D2 agonist: Beta-Arrestin HTS for Positive Allosteric Modulators of the Human D2 Dopamine Receptor: Agonists; AID 624465, 2012; activation, % (concentration not given with the values); DiscoveRx PathHunter D2 beta-arrestin, luminescence, 90 min; 100% = 57 uM dopamine signal; 0.084% of 360,000 active; in the data active = activation above about 40%; inconclusive = about 15% to 40%; inactive = below about 15%; also: compound concentration not given in the record; the text of the record calls up to 30% inactive
#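 DiscoveRx PathHunter D2 beta-arrestin cells (2,100/well) attached overnight, then compound-stimulated 90 min at 37 C in HBSS/10 mM HEPES/0.1% Tween-20 buffer; beta-galactosidase complementation read by luminescence after 1 h at ambient temperature. Dopamine 57 uM final (EC100) as control.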
# PINK1 modulator: A Quantitative High throughput Screen to Identify Chemical Modulators of PINK1 Expression; 0.2% of 410,000 active; PINK1 immunofluorescence, high-content cytometry, 24 h; Potency, µM (titrated, usually from 76.6 µM), for the others: at the highest dose activation (PINK1 increase), most hits filed as activators; active = well fitted activation curve with a large enough effect; inconclusive = small, poorly fitted or top-dose-only effect; inactive = flat fitted curve, though single readings scatter; cell line not stated here;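 also: potency is read from the fitted curve at half-maximal effect; % of control where 0% means no effect; nearly all actives have a fitted effect of over 65% in size; a mitochondrial uncoupler was the plate control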
#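 Decision-based qHTS: stable cells, 24 h exposure to five compound concentrations, CCCP as control. Fixed cells stained for PINK1 plus nuclear, mitochondrial and cell markers, cytometer read.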
# Sfp inh: qHTS Assay for Inhibitors of Bacillus subtilis Sfp phosphopantetheinyl transferase (PPTase); 3.5% of 310,000 active; Potency, µM, without a hit: max response, negative = inhibition, hits mostly inhibitors; Biochemical Sfp PPTase activity, qHTS; active = well fitted inhibition curve with a large enough effect; inconclusive = small, poorly fitted or top-dose-only effect, or another doubt; inactive = no such curve, though single readings can be large or run the other way;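 also: the enzyme is Sfp with the accession as filed and its product quenches rhodamine fluorescence; potency is read from the fitted curve at half-maximal effect; 0% = enzyme reaction without inhibitor and -100% = no enzyme wells; top concentration of the series not given in the record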
#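 With Hepes-Na pH 7.6 buffer containing 10 mM MgCl2, Sfp (15 nM) modified BHQ-2-YbbR (12.5 uM) using rhodamine-CoA (5 uM). Two reads 30 minutes apart at 525/598 nm yielded each well's rate.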
# * hit, by the source's call; ? = inconclusive; nt = no result given; & = joins results of further samples; [ ] = another dose, or the depositor's remark.
SMILES,TRPV1 potentiator,D2 potentiator,CtBP-E1A inh,Six1-Eya2 inh,D2 agonist,PINK1 modulator,Sfp inh
C=CCn1c(-c2csc(-c3ccc(OC)c(OC)c3)n2)n[nH]c1=S,27.2,-2.9,-6.2,?,6.8,3.6%,16.4%
CCOC(=O)N1CCN(S(=O)(=O)c2ccc(C)c(C)c2)CC1,-5.9,12.5,-0.7,0.6,0.3,-1.0%[38.3 µM],17.6%
O=C(c1cc2ccccc2oc1=O)N1CCN(c2ncccn2)CC1,6.7,-7.1,2.7,1.0,-3.3,-1.0%,2.6%
CCOc1ccc(OCC(=O)N2CCC3(CC2)CC(=O)c2ccccc2O3)cc1,-2.3,-17.9,2.7,-3.6,-7.0,0.1%,nt
CN(Cc1cccs1)C(=O)COc1cccc2c1OC(C)(C)C2,nt,-7.7,9.5,-3.3,-0.1,-0.9%,nt
O=c1c2ccccc2nc(N/N=C/c2c(O)ccc3ccccc23)n1O,-7.7,16.6,-93.7*,-89.5*,-2.9,-1.3%,39.8µM*
NNC(=O)CNC(=O)c1cccc(Br)c1,7.7,-1.7,2.2,6.6,-0.9,2.9%,3.1%
CC(=O)Oc1c(/C=C(\C#N)C(N)=O)[nH]c2ccccc12,7.9,-7.6,nt,-21.1,2.2,-0.9%,7.4%
CC(/C=C/C=C/c1ccccc1)=N\NC(=O)c1cccnc1,0.9,-5.0,5.3,-2.3,3.9,-0.3%,12.2%
CC(C)Cc1nnc(NC(=O)CCC(=O)N2CCN(C3CCCC3)CC2)s1,-5.9,-14.3,1.6,2.2,-6.7,-1.2%,14.7%
COCCCn1c(-c2ccco2)nc2ccccc2c1=O,-16.3,-17.8,-1.5,-4.1,-3.3,-0.6%,17.0%
Cc1c(S(=O)(=O)N2CCCC2)c(=O)n(C)c(=O)n1C,16.1,-4.8,3.7,8.5,-0.8,8.1%,nt
Cc1ccc(S(=O)(=O)N2CCN(C(=O)CSc3nncs3)CC2)cc1,21.0,-1.9,-1.9,14.4,5.6,3.3%,9.6%
Cc1cccc(C)c1NC(=O)N1CCC(C(=O)c2ccc(F)cc2)CC1,3.4,-3.2,5.3,9.9,-2.5,-0.7%,18.1%
CCOC(=O)C1CCCN1C(=O)C1(NC(C)=O)CCCC1 (stereo not given),nt,-4.8,-2.5,6.5,-2.9,-1.9%,nt
COCc1c(C)cc(C)c(/C=N/O)c1C,3.2,17.2,1.6,28.0,-1.3,-1.8%,15.3%
CCOC(=O)c1c(-c2ccc(OC)cc2)csc1NC(=O)CCN1C(=O)c2ccccc2C1=O,0.2,9.2,-5.1,-6.7,0.1,2.8%[38.3 µM],50.1µM*
CCC(CC)c1nnc(NC(=O)CN2C(=O)C3C4C=CC(C4)C3C2=O)s1 (stereo not given),5.6,-0.6,4.7,6.4,-3.1,-0.7%,10.6%
S=c1[nH]c2ccccc2n2c(=S)[nH]nc12,2.1,-16.5,-11.5,?,-8.9,0.0%,-21.8%
CC(=O)C12OC(C)(C)OC1CC1C3CCC4=CC(=O)C=CC4(C)C3(F)C(O)CC12C (stereo not given),nt,-3.9,0.0,-10.9,-3.7,7.7%,nt

# Quoted from the listing:
# PINK1 modulator with CC(/C=C/C=C/c1ccccc1)=N\NC(=O)c1cccnc1 stands at -0.3%
# Sfp inh with CC(=O)Oc1c(/C=C(\C#N)C(N)=O)[nH]c2ccccc12 stands at 7.4%

# (continued)
SMILES,TRPV1 potentiator,D2 potentiator,CtBP-E1A inh,Six1-Eya2 inh,D2 agonist,PINK1 modulator,Sfp inh
O=C(COc1ccc([N+](=O)[O-])cc1)N/N=C/c1ccccn1,2.5,-6.9,-2.0,-3.4,0.9,0.0%,79.4µM*
COC(=O)c1ccc(CSc2nnc3c(Cl)cc(Cl)cn23)o1,3.6,4.4,-27.0,-15.9,-0.7,1.2%[38.3 µM],1.9%
CCOC(=O)N1CCN(C(=O)c2cc(-c3ccncc3)nc3ccccc23)CC1,-8.3,-3.5,-4.5,4.4,11.3,9.3%,nt
CCCc1cc(=O)oc2cc(C)cc(OCC(=O)Nc3ccc(CN4CCOCC4)cc3)c12,1.4,-17.3,-9.0,-8.7,4.8,-1.4%,17.7%
[O-][n+]1onc2c3ccnnc3ccc21,2.4,-0.5,1.2,2.6,0.3,2.2%,10.4%
COc1ccccc1OCCNC(=O)c1ccc2c(c1)CCC2,-8.8,-13.6,7.1,3.0,-8.5,1.2%,-4.4%
COc1ccc(NC(=O)c2cnn(-c3ccccc3)c2C)cc1,-17.5,3.9,nt,2.7,-3.2,0.7%,12.4%
O=C(CN1CCOCC1)Nc1ccc(OCc2ccccc2)cc1,-0.1,7.7,-7.4,-0.5,0.2,-2.1%,7.2%
O=C(CC1OC(=O)c2ccccc21)Nc1cc(S(=O)(=O)N2CCOCC2)ccc1OCC(F)(F)F (stereo not given),5.4,-17.5,-2.6,4.8,-1.9,1.8%,nt
CO/N=C\CC(=O)Nc1ccc(F)cc1,?,13.4,5.2,4.5,1.9,2.4%,9.8%
CC1(OC(=O)C2CCCC2)C(=O)C=C2C=C(c3ccsc3)N(CCc3c[nH]c4ccccc34)C=C2C1=O (stereo not given),?,3.4,?,?,8.1,-0.6%,-12.6%&0.3%
N#Cc1ccc(C(=O)Nc2cc(-c3ccc(F)cc3)nn2-c2ccccc2)cc1,4.3,-6.4,3.8,2.0,0.1,10.9%,nt
O=C(NCC1CCCO1)c1ccc2c(=O)n(-c3ccc(F)cc3)c(=S)[nH]c2c1 (stereo not given),12.2,-6.0,18.3,12.3,-6.7,1.5%,1.3%
CCCN1CCc2c(sc3nc(SCC)n(-c4ccccc4)c(=O)c23)C1,-2.4,-4.3,-2.7,0.8,0.0,1.2%,-13.3%
COc1ccc(C2C(C(=O)O)CC(=O)N2C2CCCCC2)cc1 (stereo not given),-13.5,-6.7,1.2,2.4,-3.1,5.1%[38.3 µM],19.1%
CCOC(=O)Nc1cccc(NC(=O)c2ccccc2F)c1,6.9,13.3,nt,7.8,-0.5,0.2%,22.3%
O=C(NNc1c(F)c(F)cc(F)c1F)c1ccc(Cl)nc1,13.9,-1.6,5.3,8.6,4.6,-0.8%,12.4%
C[C@H](CO)N1C[C@H](C)[C@@H](CN(C)C(=O)Nc2ccnc(N3CCOCC3)c2)OCc2cnnn2CCCC1=O,nt,-4.7,0.0,12.3,-0.1,-1.0%,nt
O=C(c1ccc(F)cc1F)N1CCN(S(=O)(=O)c2ccc3c(c2)OCCO3)CC1,-9.3,2.3,9.0,-1.1,1.5,0.4%,nt
NC(=O)C1(NC(=O)[C@@H]2CC3(CC(c4cccc(NC(=O)[C@@H]5CCC(=O)N5)c4)=NO3)CN2C(=O)c2ccccc2)CC1 (stereo not given in full),13.2,-8.2,4.4,2.1,-1.8,0.0%,4.2%
CCCNS(=O)(=O)c1ccc(CCC(=O)NCCc2ccc(OC)c(OC)c2)cc1,-0.6,-1.7,11.0,5.7,-0.3,1.8%,4.8%
CCCC(C)C(=O)Nc1ncc(S(=O)(=O)c2ccc([N+](=O)[O-])cc2)s1 (stereo not given),-6.3,11.4,3.0,-0.3,14.3,?,8.3%
CCOC(=O)CC1Sc2ccccc2NC1=O (stereo not given),2.6,-4.0,9.8,0.8,-3.6,?,?
CCN(CC)C(=O)Oc1nnc(SC(C)C)n1-c1ccc(Cl)cc1,8.0,-10.2,-7.6,-2.6,6.3,0.0%,5.0%
CCO[C@@H]1OC(C(=O)N2CCN(Cc3ccccc3)CC2)=C[C@H](c2ccccc2)[C@H]1CCCO,15.1,-19.7,-0.4,-5.2,-9.3,-0.6%,6.6%
CC(=O)c1ccc(NC(=O)c2noc3c2CCC3)cc1,-32.1,-0.9,-8.9,-1.9,-0.5,0.1%,-5.3%
CCCCn1c2ccc(F)cc2c2nnc(SCCN3CCCCC3)nc21,28.6,-31.7,1.8,-2.4,-2.8,?,-17.0%
Cc1ncc([N+](=O)[O-])n1S(=O)(=O)c1ccc2c(c1)OCCO2,nt,0.5,6.0,6.0,-4.4,-0.8%,nt
Cn1nc(C(C)(C)C)cc1C(=O)N1CCCCC1c1cc(C(=O)Nc2ccc(F)c(Cl)c2)no1 (stereo not given),nt,-4.9,-21.1,1.8,1.0,4.2%,nt
Cc1ccc(NC(=O)CSc2nnc3n2CCCCC3)cc1,0.1,-10.7,3.7,1.4,-0.2,-2.3%,2.1%
CC(=O)Nc1ccc(S(=O)(=O)Nc2nc3ccccc3nc2-n2ccc(=NC(=O)c3ccc(F)cc3)cc2)cc1,-1.3,1.1,-17.4,-2.8,0.3,-1.8%,7.1%
S=C(Nc1ccccc1Cl)N1CCOCC1,-3.7,-6.7,4.4,1.5,2.2,-1.1%,-0.7%
Cc1cccc(C(=O)OCC(=O)NCC(C)C)c1O,-10.0,-27.6,4.0,0.0,-0.5,0.6%,15.7%
CCN1CCN(C(CC(C)C)c2nnnn2CS(=O)(=O)c2ccc(C)cc2)CC1 (stereo not given),-18.7,-16.7,-0.2,0.2,-4.5,0.4%,-24.7%
CCOC(=O)[C@@H]1[C@H]2COc3ccc(Br)cc3[C@@H]2N2C(=O)N(c3ccccc3)C(=O)[C@]12C,-22.6,-7.9,-2.8,3.5,-2.2,1.0%,4.1%
COc1ccc(N2CCN(C(=O)CNC(=O)c3cccc(Br)c3)CC2)cc1,12.4,-1.9,1.0,-1.0,-0.8,2.5%,10.6%
Cc1ccsc1/C=N/NC(=O)C1CC(=O)N(c2ccc(F)cc2)C1 (stereo not given),-4.4,-13.7,-9.7,-4.5,-1.6,-0.1%,-7.6%

# A different layout for some results above.
compound	TRPV1 potentiator	D2 potentiator	CtBP-E1A inh	Six1-Eya2 inh	D2 agonist	PINK1 modulator	Sfp inh
S=C(Nc1ccccc1Cl)N1CCOCC1	-3.7	-6.7	4.4	1.5	2.2	-1.1%	-0.7%
Cc1cccc(C(=O)OCC(=O)NCC(C)C)c1O	-10.0	-27.6	4.0	0.0	-0.5	0.6%	15.7%
